# Rango-impB inh – inhibitors of Rango-importin beta complex formation. Rango CFP/YFP FRET sensor + importin beta, 45 min. actives 0.031% (n = 340,000). Potency, µM (doses to about 92.2 µM), for the others: at the top dose inhibition of complex formation. Q14974; active = rising FRET ratio curve, often small or poorly fitted; inconclusive = mostly compound fluorescence or quenching in the first reads; inactive = flat curves in all reads;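 further: potency means the concentration at half of the fitted maximal effect; 0% = DMSO wells and 100% = buffer wells lacking importin beta; nearly all actives have a fitted effect of over 15% in size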
#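 Inhibition scored from the CFP 486 nm/YFP 530 nm FRET ratio 45 min after adding 0.125 microM importin beta to 50 nM Rango biosensor preincubated 5 min with compound (room temperature, PBS with DTT, Tween-20, BSA). No-importin wells as positive control.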
# miR-21 FLuc – raises the signal of a miR-21 reporter. Potency, µM (top dose mostly 38.3 µM), for inactives: at the top dose reporter change, positive = more light. HeLa miR-21 FLuc reporter, luciferase, 48 h. AID 2288. 340,000 tested, under 10 active; active = well fitted rising curve with a large enough effect; inconclusive = small, poorly fitted or top-dose-only effect; inactive = no such curve, though single readings can be large or run the other way;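 further: % of control where 0% means no effect; miR-21 action dims this reporter so a rising signal means less miR-21 action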
#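 Compounds were titrated across several concentrations (up to approximately 40 uM) and incubated 48 hours with HeLa miR-21-FLuc reporter cells (miR-21 target sequence downstream of FLuc, endogenous miR-21). Readout was firefly luciferase luminescence after lytic detection reagent.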
# Rango dissoc inh – inhibition of RanGTP-driven Rango-importin beta dissociation; O95149+P62826; Biochemical FRET Rango-importin beta, RanGTP-induced dissociation; Potency, µM (top dose mostly 46.1 µM), for the others: at the highest dose activity change, negative = inhibition; actives 0.071% (n = 340,000); AID 540253; active means falling FRET ratio curve, often poorly fitted, with flat reads before Ran was added; inconclusive means other falling curves, or compound fluorescence or quenching; inactive means flat or rising ratio curve;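 further: potency means the concentration at half of the fitted maximal effect; % of control where 0% means no effect; nearly all actives have a fitted effect of over 45% in size; -100% = wells without RanGTP and RCC1; the record marks most hits as doubtful in a second field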
#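 Quantitative HTS using a FRET biosensor: 0.1 uM Rango, 0.25 uM importin beta, 0.6 uM Ran, 2 mM GTP, 0.2 uM RCC1 final, PBS with DTT, Tween-20 and BSA. Post-read taken 45 min after Ran addition.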
# GLA inh pH 4.5 – alpha-galactosidase A (human) inhibition, pH 4.5 | P06280 | purified enzyme, 4-MU-alpha-Gal fluorescence, pH 4.5 | activity change, negative = inhibition, % at 105 µM | 230,000 tested, under 10 active; inconclusive = small, poorly fitted or top-dose-only inhibition, or a rising curve; inactive = flat fitted curve, though single readings scatter; no compound was filed as active;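 further: 0% = full activity with enzyme and -100% = basal without enzyme; dose as in the result columns while the protocol names 77 µM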
# Target sequence (P06280 whole entry, looked up): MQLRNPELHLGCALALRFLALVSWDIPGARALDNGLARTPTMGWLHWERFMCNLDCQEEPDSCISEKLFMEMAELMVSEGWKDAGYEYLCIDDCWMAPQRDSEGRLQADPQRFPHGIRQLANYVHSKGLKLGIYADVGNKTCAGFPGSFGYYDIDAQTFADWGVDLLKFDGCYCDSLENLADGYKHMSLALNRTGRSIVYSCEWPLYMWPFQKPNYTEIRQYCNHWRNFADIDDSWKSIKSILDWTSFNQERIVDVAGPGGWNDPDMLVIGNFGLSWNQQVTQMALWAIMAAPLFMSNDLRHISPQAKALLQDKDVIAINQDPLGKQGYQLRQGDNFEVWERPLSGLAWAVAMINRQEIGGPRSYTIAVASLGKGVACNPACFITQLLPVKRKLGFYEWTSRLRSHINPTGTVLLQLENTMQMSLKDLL
# Starred values were filed as active, the others as inactive; ? = inconclusive; / = no result given; & = joins results of further samples. A portion of the library; the hit share may differ from the screen's.
mol	Rango-impB inh	miR-21 FLuc	Rango dissoc inh	GLA inh pH 4.5
COc1ccc(-c2nn(-c3ccccc3)cc2C(N)=O)cc1OC	-4.7%	-9%	2%	/
O=C(COc1ccccc1Cl)Nc1nnc(S(=O)(=O)N2CCCCCC2)s1	3.2%	-4%&-6%	29%	/
Nc1cccc(Oc2c(F)c(F)c(Oc3cccc(N)c3)c(F)c2F)c1	1.7%	0%	-6%	-2
CC(C)c1ccc(NC(=O)C(c2ccccc2)N2CC(=O)Nc3ccccc32)cc1 (stereo not given)	-0.2%	-63%	14%	5
O=C(Nc1ccc2c(c1)OCO2)N1CCN(c2cccc(C(F)(F)F)c2)CC1	0.0%	-4%	-17%	-21
O=C(NNC1OC(CO)C(O)C(O)C1O)c1cccc(Br)c1 (stereo not given)	2.7%	-29%	6%	7
C=CCN1C=C2C(=O)C(C)(OC(=O)CC)C(=O)C=C2C=C1CCCC (stereo not given)	?	1%	?	-4&-4
COc1ccccc1C1C=C(c2ccc(Cl)cc2)Nc2nc(NS(C)(=O)=O)nn21 (stereo not given)	/	-3%	/	-8
O=c1c2cc(-c3ccccc3)sc2nc2n1CCC2	/	-59%	/	-17
CSc1nc2cc(C)nn2c(-c2ccccc2)c1C#N	?	-6%	-8%	1
CCc1cccc(CC)c1NC(=O)c1cccc(S(=O)(=O)N2CCN(C)CC2)c1	0.4%	-6%	0%	/
CCOC(=O)c1c(-c2ccc(C)s2)csc1N	-2.8%	-11%	-1%	4

# Further results:
mol	Rango-impB inh	miR-21 FLuc	Rango dissoc inh	GLA inh pH 4.5
CCOc1ccc(CNC(=O)Cn2ccc3cc(S(=O)(=O)N4CCCCCC4)ccc32)cc1	0.7%	3%&2%	-2%	/
COCCCn1c(SCC(=O)Nc2oc(C)c3c(C)n[nH]c(=O)c23)nc2ccccc2c1=O	1.9%	/	-19%	/
CCCCN(C(=O)/C=C/c1ccc(OCC(C)C)c(OCC)c1)c1c(N)n(CCC)c(=O)[nH]c1=O	0.4%	0%	-2%	-1
O=C(COc1cc(Cl)ccc1Cl)Nc1ccc2[nH]c(=O)[nH]c2c1	-0.7%	/	0%	/
COc1ccc(CCNC2CC(=O)N(CCc3ccccc3)C2=O)cc1OC (stereo not given)	-0.6%	-5%	11%	-16
Cc1ccc(C)c(-c2csc(NC(=O)c3cnccn3)n2)c1	1.0%	-5%	-11%	2
Cc1cccc(OCC(=O)Nc2cccc(C(=O)Nc3ccccc3C(=O)O)c2)c1	-4.6%	-10%	3%	-7
O=c1c2cc(Br)ccc2nc(-c2ccc([N+](=O)[O-])cc2)n1O	0.3%	-2%	-7%	9
CCCCN1C(=O)N(C)C2C1N(C)C(=O)N2CCCC (stereo not given)	-5.1%	-5%	3%	-4
CCC1=Nc2cc(C(=O)NCCCN3CCOCC3)ccc2Sc2ccc(Br)cc21	0.0%	9%	8%	/
COc1ccccc1C(=O)COC(=O)Cc1c[nH]c2ccccc12	-1.7%	/	15%	/
COc1ccc(C2/C=C\CN(C(=O)Oc3ccccc3)CC(=O)N2Cc2ccc(F)cc2)cc1 (stereo not given)	0.2%	4%	-7%	-6

# The listing continues.
# Letter code: A = Rango-impB inh; B = miR-21 FLuc; C = Rango dissoc inh; D = GLA inh pH 4.5
COc1cccc(-c2ccc(SCC(=O)NC3CCCCC3)nn2)c1
  A: -2.1% | B: -5% | C: 3% | D: /
COc1ccc(CCNC(=O)C2CCN(S(=O)(=O)c3cccc4cccnc34)CC2)cc1OC
  A: 0.6% | B: 0% | C: -19% | D: /
COC(=O)c1ccc(C(=O)OC)c(NC(=O)CSCC(=O)O)c1
  A: -0.7% | B: -1% | C: -1% | D: -3
Cc1ccc(-c2cc(C(=O)NCCCN3CCOCC3)c3ccccc3n2)cc1C
  A: 1.0% | B: 10% | C: -9% | D: /
CCCCOc1[nH]c2nc(-c3ccco3)n(Cc3ccco3)c(=N)c2c1C#N
  A: ? | B: -3% | C: ? | D: -1
CCn1cc(C(=O)NC2CCCC2)c(=O)c2cc(S(=O)(=O)N3CCOCC3)ccc21
  A: -0.9% | B: / | C: 1% | D: /
CC(C)CNS(=O)(=O)c1cc(C(=O)O)c(Cl)cc1Cl
  A: -0.6% | B: -1% | C: -18% | D: -13
C[C@@H](NC(=O)c1coc(=O)c(Br)c1)c1ccccc1
  A: -0.3% | B: -1% | C: -7% | D: -2
Cc1ccc(C(=O)NC(C)C2CCCO2)o1 (stereo not given)
  A: 2.3% | B: -1% | C: 25% | D: /
Cc1cc(=O)c(C(=O)O)nn1-c1ccccc1[N+](=O)[O-]
  A: 0.7% | B: -2% | C: 6% | D: /
CCOC(=O)N1CCN(c2cccc(C)c2C)CC1
  A: 2.1% | B: -19% | C: 12% | D: 6
Cc1ccc(NC(=O)C2CC(=O)n3c(nc4ccccc43)N2)cc1Cl (stereo not given)
  A: -4.1% | B: 3% | C: 8% | D: -3
CC1=CC(=O)N(c2cccc(C(F)(F)F)c2)C1c1ccc(Cl)cc1 (stereo not given)
  A: -2.5% | B: 23% | C: 3% | D: -25
CCN(CC)c1ccc(NC(=S)NC(=O)C2CCC2)cc1
  A: 0.1% | B: -30% | C: 0% | D: /
Cc1ccccc1C(=O)c1cccn1CC(=O)NC1CCCC(C)C1C (stereo not given)
  A: -2.2% | B: 3% | C: 10% | D: /

# A stretch taken from the entries so far, as a working copy:
# Letter code: A = Rango-impB inh; B = miR-21 FLuc; C = Rango dissoc inh; D = GLA inh pH 4.5
O=c1c2cc(Br)ccc2nc(-c2ccc([N+](=O)[O-])cc2)n1O
  A: 0.3% | B: -2% | C: -7% | D: 9
CCCCN1C(=O)N(C)C2C1N(C)C(=O)N2CCCC (stereo not given)
  A: -5.1% | B: -5% | C: 3% | D: -4
CCC1=Nc2cc(C(=O)NCCCN3CCOCC3)ccc2Sc2ccc(Br)cc21
  A: 0.0% | B: 9% | C: 8% | D: /
COc1ccccc1C(=O)COC(=O)Cc1c[nH]c2ccccc12
  A: -1.7% | B: / | C: 15% | D: /
COc1ccc(C2/C=C\CN(C(=O)Oc3ccccc3)CC(=O)N2Cc2ccc(F)cc2)cc1 (stereo not given)
  A: 0.2% | B: 4% | C: -7% | D: -6
COc1cccc(-c2ccc(SCC(=O)NC3CCCCC3)nn2)c1
  A: -2.1% | B: -5% | C: 3% | D: /
COc1ccc(CCNC(=O)C2CCN(S(=O)(=O)c3cccc4cccnc34)CC2)cc1OC
  A: 0.6% | B: 0% | C: -19% | D: /
COC(=O)c1ccc(C(=O)OC)c(NC(=O)CSCC(=O)O)c1
  A: -0.7% | B: -1% | C: -1% | D: -3
Cc1ccc(-c2cc(C(=O)NCCCN3CCOCC3)c3ccccc3n2)cc1C
  A: 1.0% | B: 10% | C: -9% | D: /
CCCCOc1[nH]c2nc(-c3ccco3)n(Cc3ccco3)c(=N)c2c1C#N
  A: ? | B: -3% | C: ? | D: -1
CCn1cc(C(=O)NC2CCCC2)c(=O)c2cc(S(=O)(=O)N3CCOCC3)ccc21
  A: -0.9% | B: / | C: 1% | D: /
CC(C)CNS(=O)(=O)c1cc(C(=O)O)c(Cl)cc1Cl
  A: -0.6% | B: -1% | C: -18% | D: -13
C[C@@H](NC(=O)c1coc(=O)c(Br)c1)c1ccccc1
  A: -0.3% | B: -1% | C: -7% | D: -2
Cc1ccc(C(=O)NC(C)C2CCCO2)o1 (stereo not given)
  A: 2.3% | B: -1% | C: 25% | D: /
Cc1cc(=O)c(C(=O)O)nn1-c1ccccc1[N+](=O)[O-]
  A: 0.7% | B: -2% | C: 6% | D: /
CCOC(=O)N1CCN(c2cccc(C)c2C)CC1
  A: 2.1% | B: -19% | C: 12% | D: 6
Cc1ccc(NC(=O)C2CC(=O)n3c(nc4ccccc43)N2)cc1Cl (stereo not given)
  A: -4.1% | B: 3% | C: 8% | D: -3
CC1=CC(=O)N(c2cccc(C(F)(F)F)c2)C1c1ccc(Cl)cc1 (stereo not given)
  A: -2.5% | B: 23% | C: 3% | D: -25
CCN(CC)c1ccc(NC(=S)NC(=O)C2CCC2)cc1
  A: 0.1% | B: -30% | C: 0% | D: /
Cc1ccccc1C(=O)c1cccn1CC(=O)NC1CCCC(C)C1C (stereo not given)
  A: -2.2% | B: 3% | C: 10% | D: /

# The listing continues.
# Letter code: A = Rango-impB inh; B = miR-21 FLuc; C = Rango dissoc inh; D = GLA inh pH 4.5
NS(=O)(=O)c1ccc(NC(=O)COC(=O)C2CCCCC2)cc1
  A: 3.6% | B: -4% | C: 1% | D: 7
Brc1ccc(Sc2cnc3ccccc3n2)cc1
  A: 0.2% | B: -32% | C: 26% | D: 9
O=C(O)CCN1C(=O)/C(=C\c2cccc(Oc3ccccc3)c2)SC1=S
  A: 0.9% | B: -1% | C: -2% | D: /
CC(O)c1nc2ccccc2n1C1CCCCC1 (stereo not given)
  A: 0.8% | B: -5% | C: -18% | D: 6
CCOC(=O)Cc1csc(NC(=O)CSc2nnnn2-c2ccc(CC)cc2)n1
  A: -0.3% | B: -1% | C: -1% | D: -8
Cn1c(SCCN2CCCC2)nnc1C1CCN(S(=O)(=O)c2cccc(F)c2)CC1
  A: 0.0% | B: -6% | C: -11% | D: /
CCn1nnnc1NCc1ccc(Cl)cc1
  A: -2.4% | B: -4% | C: ? | D: /
COCCCNC(=O)c1c[nH]c2ccc(S(=O)(=O)N3CCc4ccccc43)cc2c1=O
  A: -2.5% | B: 24% | C: 5% | D: -1
CCc1cccc(C)c1NC(=O)Cn1nc(C)n2cccc2c1=O
  A: -3.8% | B: -1%&-84% | C: 0% | D: /
CCN(CC)CCOC(=O)c1ccc(N/C=C(/C#N)c2nc(-c3cccc(OC)c3)cs2)cc1
  A: 3.3% | B: -16% | C: -1% | D: -15
Cc1c(CN(C)C(=O)c2ccc(Br)o2)cnn1C
  A: 4.3% | B: -10% | C: 4% | D: -13
CCOc1ccc2nc(N/C(N)=N/C(=S)Nc3cccc(C)c3)nc(C)c2c1
  A: -2.4% | B: -5% | C: -13% | D: 4
O=C(CSCc1nc2ccccc2[nH]1)Nc1ccccc1
  A: 0.9% | B: -4% | C: 6% | D: 3
